Screening results: PubChem, several laboratories
T cruzi inh: blocks replication of Trypanosoma cruzi. T. cruzi beta-gal in NIH3T3, luminescence, 90 h. inhibition, % (test concentration not listed). 300,000 tested, 1.4% active;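 active = mean inhibition across valid replicates above about 55%, limit read from the data; inconclusive = mean below that limit but half or more replicates reach it; inactive = mean below it, under half of replicates reach it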;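 also: signal also drops with host cell toxicity which is not excluded here; 0% = plate median of DMSO wells and 100% = zero luminescence signal; higher percent means less beta-gal luminescence so fewer parasites; stock transfer was 50 nL into about 50 µL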
Calb FLC: affects C. albicans growth with fluconazole. C. albicans CaCi-2 (fluconazole-resistant clinical isolate) + fluconazole, Alamar Blue growth, 48 h. growth inhibition, % (test concentration not listed). 300,000 tested, 0.57% active. AID 1979;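 active = most replicates above 75%; inconclusive = exactly half above 75%; inactive = most below 75%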;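 also: all wells also contain fluconazole at 8 µg/ml as a sub-toxic cotreatment; 0% = median of DMSO wells and 100% = median of geldanamycin control wells; wells of about 8 µL received 7.5 nL stock; the first replicate is given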
B2AR ag: agonists of human beta-2 adrenergic receptor inducing internalization; 340,000 tested, 0.43% active; response, % (no concentration beside the values); Am2.2-beta2AR cells, FAP receptor internalization, flow cytometry; reference of the scale not given here; AID 504454;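 active = response above a set limit, near 3 SD of response in nonfluorescent compounds, cut at about 42% in these data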;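 also: stock transfer was 100 nL into about 11 µL; a reference agonist was the positive control; negative values mostly stem from fluorescent compounds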
Target sequence (P07550 whole entry, looked up): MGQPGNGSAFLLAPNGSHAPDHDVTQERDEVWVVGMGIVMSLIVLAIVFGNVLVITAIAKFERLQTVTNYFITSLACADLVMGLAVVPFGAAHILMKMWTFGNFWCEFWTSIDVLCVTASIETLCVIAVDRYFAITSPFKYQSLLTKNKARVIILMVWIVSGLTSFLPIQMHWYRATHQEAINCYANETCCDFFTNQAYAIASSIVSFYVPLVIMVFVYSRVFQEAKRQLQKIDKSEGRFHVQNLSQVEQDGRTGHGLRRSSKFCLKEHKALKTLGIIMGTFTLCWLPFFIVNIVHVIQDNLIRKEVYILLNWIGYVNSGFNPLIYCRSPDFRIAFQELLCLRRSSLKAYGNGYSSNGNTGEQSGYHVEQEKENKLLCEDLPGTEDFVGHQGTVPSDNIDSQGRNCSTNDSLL
LANA-H2B inh: blocks KSHV LANA binding to histone H2A/H2B; 320,000 tested, 0.6% active; AID 2629; cell-free LANA-H2A/H2B peptide, fluorescence polarization; Q9QR71; inhibition, % (no concentration beside the values); in the data active = inhibition mostly above about 10%, no sharp cut-off; inactive = mostly below about 6.7%;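 also: stock transfer was 7.5 nL into about 10 µL; 0% = median of vehicle wells and 100% = median of positive control wells; one replicate is shown; the record names a cut of 25% in any replicate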
RanGTP-Impb inh: disruptors of Ran-importin-beta complex formation – biochemical, FRET, CFP-Ran, YFP-importin-beta, homogeneous, primary screen; cell-free CFP-Ran/YFP-importin-beta FRET ratio; inhibition, % (no concentration beside the values); 300,000 tested, 1.1% active; AID 2216;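 active = most replicates above 15%; inconclusive = exactly half above 15%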;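 also: 0% = DMSO wells and 100% = Ran loaded with GDP instead of GTP; wells of about 40 µL received 100 nL stock; the first replicate is given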
Beta apoptosis: beta cell apoptosis inhibition. 300,000 tested, 0.8% active. INS-1E cytokine-induced death, ATP luminescence, 48 h; percent of positive-control rescue, neutral wells zero. AID 435005. protection from apoptosis, % (no concentration beside the values);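 active = all replicates at 75% or more, or half of them and the mean; inconclusive = half reach 75% but not the mean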;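 also: 0% = cytokine-treated negative control wells and 100% = positive control rescue; higher means more ATP so stronger rescue from cytokine killing; wells of about 40 µL received 100 nL stock; the first replicate is given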
Bfl-1 A1 inh: inhibitors of the anti-apoptotic protein A1, read as caspase activation; MEF A1-2A-BIM cells, Caspase-Glo 3/7 luminescence, 3 h; percent of clofoctol response, vehicle zero; caspase activation, % (no concentration beside the values); 330,000 tested, 0.066% active; AID 2462;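 active = over half of replicate activation scores above 10%, or exactly half above 10 with the replicate mean above 10; inconclusive = replicate mean below 10 yet half the replicates above 10; inactive = over half of replicates below 10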;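 also: wells of about 30 µL received 50 nL stock; many hits fall short of the cut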
UCH37 inh: inhibitors of human deubiquitinating enzyme UCH37 | Q9Y5K5 | 330,000 tested, 0.33% active | AID 588478 | purified proteasome/UCH37, Ub-AMC cleavage fluorescence | inhibition, % (test concentration not listed);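 active = mean of two replicates above 20%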;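 also: 0% = compound-free wells with enzyme and 100% = wells lacking proteasome; stock transfer was 100 nL into about 20 µL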
Target sequence (Q9Y5K5 whole entry, looked up): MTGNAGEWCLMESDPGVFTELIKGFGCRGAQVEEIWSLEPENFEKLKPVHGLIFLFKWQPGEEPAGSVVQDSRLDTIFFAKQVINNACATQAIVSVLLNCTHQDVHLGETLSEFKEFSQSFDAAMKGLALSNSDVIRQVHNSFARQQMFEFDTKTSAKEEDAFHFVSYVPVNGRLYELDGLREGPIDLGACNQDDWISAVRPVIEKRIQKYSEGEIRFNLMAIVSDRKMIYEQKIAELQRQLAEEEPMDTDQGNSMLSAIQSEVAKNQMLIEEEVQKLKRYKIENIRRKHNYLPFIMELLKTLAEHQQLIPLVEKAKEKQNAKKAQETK
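Test system – human UCH37 enzyme supplied as purified proteasome complex · Incubation – 30 min preincubation with enzyme, 25 min cleavage at room temperature · Detection – AMC fluorescence from Ub-AMC cleavage, excitation 355 nm, emission 460 nm · Benchmarks – no-proteasome wells (full inhibition) and compound-free wells (no inhibition)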
Numbers without * were called inactive; ? = inconclusive; . = no result given. Random draw from the library (roughly 4.3% active in at least one column).

SMILES	T cruzi inh	Calb FLC	B2AR ag	LANA-H2B inh	RanGTP-Impb inh	Beta apoptosis	Bfl-1 A1 inh	UCH37 inh
Cc1cc(F)ccc1NC(=O)C1CSC2(C)CCC(=O)N12 (stereo not given)	2	0	-9	1.5	-1.4	-5	1.0	0.8
Oc1[nH]c2ccccc2c1N=NC(=S)NCCc1ccccc1	-3	12	10	1.8	-2.8	-2	0.7	1.6
Cc1nc(N)c(Br)c(C)c1Br	-11	20	-5	-2.6	5.8	0	0.8	2.9
COC(=O)c1[nH]c2ccccc2c1NC(=O)CN1CCCc2ccccc21	68*	12	6	-2.3	-1.7	-3	0.1	1.0
CCc1nn(CC(=O)N2CCC(C)CC2)c(=O)c2cccn12	-7	3	0	1.2	-1.0	-4	-0.6	1.9
O=C(NCC1CC1)[C@]1(C(F)(F)F)C[C@H](CCC2CCCCC2)CCCO1	-10	2	13	-7.9	?	-2	1.6	-0.6
CN(C)C(CNC(=O)CSc1nc2sc3c(c2c(=O)n1C)CCCC3)c1ccccc1 (stereo not given)	.	.	10	-2.4	.	-4	0.2	5.7
COc1ccc(N2CCN(C(=O)CCSCc3ccccc3F)CC2)cc1	10	-2	-1	-3.1	-2.3	2	-0.3	1.9
Cc1nn2c(NCCOCCO)c3c(nc2c1-c1ccccc1)CCCC3	12	26	-25	1.8	1.6	1	1.0	-7.2
O=C(Nc1ccccc1F)c1cc2nc(C(F)F)cc(C(F)F)n2n1	-9	-10	3	0.1	4.0	-3	-0.3	-9.1
CCCn1c(N2CCN(C)CC2)nc2c1c(=O)[nH]c(=O)n2C	6	1	-1	3.1	2.2	-2	0.8	-0.4
O=C(CC1C[C@H](C(=O)N2CCOCC2)[C@@]2(CCC3CCCC3)c3[nH]c4ccccc4c3CCN2C1=O)NCCc1ccccn1 (stereo not given in full)	.	.	3	105*	.	-3	1.3	-0.1
O=C1COc2cc(S(=O)(=O)CCC(=O)N3CCCCC3)c(Cl)cc2N1	3	-8	-2	-6.0	?	-6	-0.7	4.4
Cc1nc(NCCc2ccc(O)cc2)c2nnn(Cc3ccccc3)c2n1	4	25	-3	-1.1	-0.4	5	1.4	.
CC(CC(=O)c1cccs1)CC(=O)c1cccs1	-7	-2	-14	-0.2	?	0	0.0	3.4
Nc1nnc(SCc2ccccc2F)n1-c1ccccc1	-7	-1	-4	4.5	0.8	4	0.3	-0.9
Cc1nc2sc(C(c3ccccc3)N3CCN(c4ccccc4F)CC3)c(O)n2n1 (stereo not given)	-11	-7	-6	-0.5	1.5	-3	0.7	5.9
COc1ccc(CC(=O)Nc2ccc(OC(C)=O)cc2C(=O)O)cc1	-2	3	-3	0.1	1.2	6	-1.4	-5.4
Cc1ccc(NC(=O)CCCN2C(=O)/C(=C/C=C/c3ccccc3)SC2=S)cc1	3	10	5	1.2	-7.8	-4	-0.1	11
CCOC(=O)C1CCN(S(=O)(=O)c2ccc3c(c2)N(C)C(=O)CC(=O)N3C)CC1	-5	-6	1	4.6	-0.4	-5	0.1	-2.8
Cc1cc(=O)oc2c(C)c(OCC(=O)NCCCN3CCCC3=O)ccc12	-5	9	8	3.7	-0.3	0	0.6	-23
CCC(CC)C(=O)Nc1nnc(S(=O)(=O)Nc2ccc(OC)cc2)s1	2	6	1	1.4	-3.1	-10	0.9	0.5
CCC1CCCCN1Cc1ccc(CNS(=O)(=O)c2ccc3c(c2)oc(=O)n3C)o1 (stereo not given)	12	9	-27	2.7	.	3	0.3	4.8
COc1ccc(CCN(C)Cc2nc(-c3cnccn3)no2)cc1OC	0	4	-13	-0.2	-1.4	-2	0.0	0.5
CCN(CC(=O)Nc1ccc(NC(C)=O)cc1)C(=O)c1cc2c(s1)CCCC2	.	.	-7	0.5	.	-2	0.3	2.0
COc1cccc2c1O/C(=N\O)C(C(=O)Nc1cccc(Br)c1)C2 (stereo not given)	-8	-14	1	0.4	0.0	6	0.1	.
O=S(=O)(c1ccc(Cl)cc1)N1CCN=C1SCc1ccc(Cl)c(Cl)c1	14	14	-6	1.8	1.2	1	0.5	0.8
Cc1ccc(Cl)cc1N1CCN(C(=O)c2noc(C(C)C)c2[N+](=O)[O-])CC1	-19	-30	16	0.0	5.2	-3	2.3	1.9
Cc1cc(NS(=O)(=O)c2ccc(NC(=O)/C=C/c3ccccc3)cc2)no1	-15	-10	8	0.6	-0.6	0	-0.4	6.3
Cc1ccccc1SC1CCN(C(=O)C2CCC(=O)N(C3CC3)C2)CC1 (stereo not given)	-9	-15	0	7.2	3.0	-3	0.3	-2.5
CC1CCN(CCCNC(=O)C2CCC(CNS(=O)(=O)c3ccccc3)CC2)CC1 (stereo not given)	-14	-2	5	4.1	3.2	-3	-0.8	0.7
Cc1ccc(NC(=O)CCn2cnc3ccccc3c2=O)cc1Cl	-3	-5	-1	-3.9	1.7	-4	0.2	-0.2
COc1ccccc1C(=O)NC(=O)COC(=O)CNC(=O)c1ccccc1	-5	-2	7	1.7	-0.6	.	0.6	4.2
CCCc1cc(C(=O)OCC(=O)N(CCC)c2c(N)n(Cc3ccccc3)c(=O)[nH]c2=O)sc1C	-10	3	-1	-5.7	-1.5	.	0.7	0.4
N/C(=N/O)c1cccn1Cc1ccccc1[N+](=O)[O-]	0	-5	-7	2.3	-0.6	-18	-0.1	.
Cc1ccc(NC(=O)COC(=O)COc2cccc3c2OC(C)(C)C3)cc1C	-14	3	8	-2.1	1.0	0	0.8	4.3
Cc1c(NC(=O)c2ccc(Cl)c([N+](=O)[O-])c2)cccc1-n1cnnn1	.	.	16	-1.0	.	-2	0.8	-1.6
CSc1ccccc1NC(=O)CO/N=C(\C)c1cc2ccccc2o1	0	19	-6	-4.8	3.2	-6	-0.7	.
CCOC(=O)CSc1nnc(CNC(=O)c2ccc(OC)cc2OC)n1-c1ccc(OC)cc1	.	.	4	2.4	.	.	0.2	2.9
Cc1nn(-c2ccccc2)c(Cl)c1C(=O)NCC(C)C	2	18	-15	6.0	-0.2	-4	0.3	0.3
O=C(Nc1ncccc1Cl)c1cccc(F)c1	-16	-20	3	-2.3	-1.0	-4	-0.3	1.4
O=C(O)c1ccccc1SSc1ccccc1C(=O)O	-1	2	8	0.2	2.9	-9	-1.4	4.6
CN(c1cccc(NC(=O)CN2C(=O)c3ccccc3S2(=O)=O)c1)S(C)(=O)=O	5	-3	-2	-6.2	-1.1	-3	-0.6	0.7
CCC(CC)NC(=O)Cc1ccccc1OC	-14	-19	-5	6.7	?	-5	-0.1	0.6
N#Cc1c(NC(=S)NC(=O)C2CCCC2)sc2c1CCCCC2	15	-5	6	-1.6	0.5	7	-1.0	.
CC(NC(=O)CN(c1ccccc1F)S(C)(=O)=O)c1ccccc1 (stereo not given)	-8	7	0	-3.7	0.6	-5	1.6	-0.1
O=C(CO/N=C1\CCCc2nonc21)Nc1ccc(Br)cc1	5	-18	-15	5.7	1.7	-3	0.1	.
COc1ccc(CN(C(=O)c2ccc(C)cc2)C2CCS(=O)(=O)C2)cc1 (stereo not given)	2	-19	-7	12	-0.4	-2	0.6	2.7
CCOc1ccccc1N1CCN(CC(O)COc2ccc3c(C)cc(=O)oc3c2)CC1 (stereo not given)	3	3	1	-4.4	-4.0	.	0.0	-10
COc1ccc(OC)c2[nH]c(=O)c(CCNS(=O)(=O)c3ccc(F)cc3)cc12	22	-3	1	1.3	1.5	-9	0.7	-8.9
C/C(=N\N=C(c1ccccc1)c1ccccc1)c1ccco1	12	5	11	-4.2	-2.7	-2	0.6	.
NC(=O)CC(NC(=O)c1ccccc1)c1ccc(NC2CCN(Cc3ccccc3)CC2)c([N+](=O)[O-])c1 (stereo not given)	-3	-3	-14	3.6	-0.6	-2	-0.2	-0.1
Nc1nonc1C(=O)NCCNC(=O)c1ccccc1F	-8	-8	-6	1.1	0.2	-1	0.5	1.2
C(=N\n1cnnc1)/c1ccc(-c2ccccc2)cc1	8	13	4	2.5	-4.7	0	-0.9	.
CCC1C(=O)NCCN1C(=O)c1ccc2nc(Cc3ccc(OC)cc3)oc2c1 (stereo not given)	11	-4	-2	12	-1.5	-7	-0.4	3.5
N/C(=N\OC(=O)Cc1cccs1)c1ccc([N+](=O)[O-])cc1	9	-2	-5	.	-1.9	1	0.0	.
O=C1c2cccc(OCC(=O)N3CCCc4ccccc43)c2CCN1Cc1ccc(F)cc1	7	-4	0	0.0	-1.1	9	0.6	4.8
Cc1nc2cc(C(=O)O)ccc2s1	-5	36	1	-7.2	0.9	-6	-0.1	0.7
CC(C)Cn1c(-c2cccnc2)nc2c1c(=O)[nH]c(=O)n2CC(C)C	16	5	-7	7.2	3.4	-1	0.2	0.1
COc1ccc2cc3cc(C(=O)N4CCCCCC4)oc3nc2c1	14	-4	-1	-4.5	3.3	3	-14	-494

(listing goes on)
SMILES	T cruzi inh	Calb FLC	B2AR ag	LANA-H2B inh	RanGTP-Impb inh	Beta apoptosis	Bfl-1 A1 inh	UCH37 inh
CN1CCN(S(=O)(=O)c2ccc(NN)nc2)CC1	.	.	2	2.9	.	-1	1.3	-11
CC(C)(C)CC(=O)Nc1ccccc1N1CCN(c2ccc(F)cc2)CC1	25	-1	6	-1.8	-0.2	.	-0.4	1.2
Cc1ccc(CSC2=NCCN2C(=O)C2CC2)cc1	9	-15	-14	-1.2	2.1	8	0.3	-0.3
Cc1cccc(NC(=O)c2cc(S(=O)(=O)N3CCCCC3)c[nH]2)c1C	-16	-5	3	-1.2	6.8	-7	0.4	4.4
COc1cccc2sc(NNC(=O)C3=COCCO3)nc12	-1	-9	-2	1.0	-1.1	-3	0.2	0.0
CC(NC(=O)CN1CCCC1)c1ccccc1 (stereo not given)	-14	1	-8	-3.6	1.3	-3	0.8	0.9
CCCn1nc(NC(=O)C(C)(C)C)c2cc3cc(OC)ccc3nc21	-11	3	0	3.1	67*	10	-0.6	-72
Cc1cc(C)nc(NC(=O)CCN2C(=O)c3ccccc3S2(=O)=O)n1	-7	0	-4	-3.5	-2.9	.	0.4	4.4
Cc1cc(Nc2ccccc2)nn1C(=O)c1ccc(Cl)cc1	1	.	4	-4.5	0.3	-1	-0.2	1.4
O=C(Nc1ccc(Cl)cn1)Nc1ccc(Cl)cn1	2	-8	-5	1.9	-0.5	2	-0.3	5.7
CN1C(=O)/C(=C/c2ccccc2F)Sc2ccc(C(=O)NCC3CCCO3)cc21 (stereo not given)	-19	-2	2	-0.4	7.5	.	1.5	-4.4
Cc1ccc(Nc2nc3ccccc3n3cnnc23)c(Cl)c1	6	11	-20	1.2	-1.4	-8	-0.3	-99
O=C(O)C1(P(=O)(c2ccccc2)c2ccccc2)CCC1	-10	6	5	1.6	1.8	-5	-1.9	2.1
CCN(CC)CCCn1c2c(c(SCC(=O)Nc3ccc(OC(F)(F)F)cc3)nc1=O)CCC2	13	-2	0	-3.3	?	-3	-0.8	4.2
CCCNC(=O)c1ccc(S(=O)(=O)c2ccc(OC)cc2)c([N+](=O)[O-])c1	-3	0	2	-2.2	-0.9	-22	0.5	6.5
